D2 PAM: Beta-Arrestin HTS for Positive Allosteric Modulators of the Human D2 Dopamine Receptor: Potentiators; D(2) dopamine receptor (Homo sapiens), P14416; DiscoveRx D2 beta-arrestin cells, luminescence, 90 min; 100% = 57 uM dopamine signal; potentiation, % (test concentration not listed); 360,000 compounds, 0.23% hits; AID 624464, 2012; active = potentiation of 50% or more; inconclusive = 30% to 50%; inactive = 30% or less;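 further: compound concentration not given in the record; tested on top of an EC20 dose of dopamine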
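PathHunter D2 cells, attached overnight at 37 deg C, received compound in DMSO plus dopamine at EC20 (50 nM final) for 90 min at 37 deg C. Beta-arrestin recruitment was read as luminescence after 1 h with detection reagent at ambient temperature.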
Sfp inh: qHTS Assay for Inhibitors of Bacillus subtilis Sfp phosphopantetheinyl transferase (PPTase); 310,000 compounds, 3.5% hits; 4'-phosphopantetheinyl transferase ffp (Bacillus subtilis), Q9F4F7; AID 1490, 2009; Potency, µM, inactives show max response, negative = inhibition, most hits filed as inhibitors; Biochemical Sfp PPTase activity, qHTS; active means well fitted inhibition curve with a large enough effect;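 further: the enzyme is Sfp with the accession as filed and its product quenches rhodamine fluorescence; potency means the concentration at half of the fitted maximal effect; 0% = enzyme reaction without inhibitor and -100% = no enzyme wells; top concentration of the series not given in the record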
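With Hepes-Na pH 7.6 buffer containing 10 mM MgCl2, Sfp (15 nM) modified BHQ-2-YbbR (12.5 uM) using rhodamine-CoA (5 uM). Two reads 30 minutes apart at 525/598 nm yielded each well's rate.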
TRPV1 PAM: HTS Assay for Compounds that Act as Potentiators of the Vanilloid Receptor 1; TRPV1-expressing cells, Fluo-8 calcium influx, capsaicin EC20 potentiation; host cell line not named in the record; control for the full effect not named in the record; 320,000 compounds, 0.02% hits; Transient receptor potential cation channel subfamily V member 1 (Homo sapiens), Q8NER1; potentiation, % at 8.33 µM; active means potentiation above 80%; inconclusive means 30% to 80%; inactive means below 30%; further: 0% is about no effect
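Fluo-8 calcium influx in TRPV1-expressing cells, kinetic read (ex 480/em 520 nm). Compound added and read 3 min for agonist activity, followed by capsaicin at EC20 final and 2 min further read for enhancement.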
PINK1 modulator: A Quantitative High throughput Screen to Identify Chemical Modulators of PINK1 Expression | AID 624263, 2012 | Potency, µM (highest dose often 76.6 µM), for the others: top-dose activation (PINK1 increase), actives largely listed as activators | PINK1 immunofluorescence, high-content cytometry, 24 h | 410,000 compounds, 0.2% hits; active = well fitted activation curve with a large enough effect; inconclusive = small, poorly fitted or top-dose-only effect; inactive = flat fitted curve, though single readings scatter; cell line not stated here;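 further: potency means the concentration at half of the fitted maximal effect; % of control where 0% means no effect; nearly all actives have a fitted effect of over 65% in size; a mitochondrial uncoupler was the plate control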
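Measures PINK1 amount and localization on or inside mitochondria by immunofluorescence. Stable cells get compounds at 5 concentrations for 24 hours before fixation and staining; CCCP controls included.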
CtBP-E1A inh: qHTS Assay for Inhibitors of the CtBP/E1A Interaction; CtBP / adenovirus E1A interaction (AlphaScreen); AlphaScreen GST-E1A/His-CtBP binding, 1536-well; stronger effect = lower value; control for the full effect not named in the record; activity change, % (concentration not given with the values); 340,000 compounds, 0.49% hits; in the data active means activity change below about -65%; inconclusive means about -30% to -65%; inactive means above about -30%; further: on the % scale 0 is the no-effect control and ±100 the full control effect
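Homogeneous bead-based format: GST-tagged E1A captured on glutathione donor beads, His-tagged CtBP on nickel acceptor beads; compounds precede bead addition by 2 h at 37 °C.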
Six1-Eya2 blk: qHTS Assay for Inhibitors of the Six1/Eya2 Interaction; 360,000 compounds, 0.56% hits; activity change, % (test concentration not listed); AlphaScreen GST-Six1/His-Eya2 binding, biochemical; stronger effect = lower value; control for the full effect not named in the record; AID 651725, 2012; in the data active = activity change below about -65%; inconclusive = about -30% to -65%; inactive = above about -30%; further: on the % scale 0 is the no-effect control and ±100 the full control effect
Target sequence (O00167 whole entry, looked up): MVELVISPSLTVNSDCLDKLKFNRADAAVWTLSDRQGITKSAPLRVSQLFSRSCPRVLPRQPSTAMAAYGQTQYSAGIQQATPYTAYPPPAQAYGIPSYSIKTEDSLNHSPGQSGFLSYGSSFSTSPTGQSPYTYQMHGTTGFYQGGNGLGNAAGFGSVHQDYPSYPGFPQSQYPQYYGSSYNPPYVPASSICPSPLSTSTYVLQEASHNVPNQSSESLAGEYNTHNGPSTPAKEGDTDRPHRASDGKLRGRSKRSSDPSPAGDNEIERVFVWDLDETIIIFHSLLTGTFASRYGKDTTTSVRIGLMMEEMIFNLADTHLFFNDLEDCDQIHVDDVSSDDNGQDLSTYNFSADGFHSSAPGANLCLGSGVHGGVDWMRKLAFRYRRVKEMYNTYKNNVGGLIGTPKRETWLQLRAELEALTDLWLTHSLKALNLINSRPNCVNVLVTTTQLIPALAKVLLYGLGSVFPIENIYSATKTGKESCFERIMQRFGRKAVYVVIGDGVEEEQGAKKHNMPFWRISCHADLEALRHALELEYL
Target sequence (Q15475 whole entry, looked up): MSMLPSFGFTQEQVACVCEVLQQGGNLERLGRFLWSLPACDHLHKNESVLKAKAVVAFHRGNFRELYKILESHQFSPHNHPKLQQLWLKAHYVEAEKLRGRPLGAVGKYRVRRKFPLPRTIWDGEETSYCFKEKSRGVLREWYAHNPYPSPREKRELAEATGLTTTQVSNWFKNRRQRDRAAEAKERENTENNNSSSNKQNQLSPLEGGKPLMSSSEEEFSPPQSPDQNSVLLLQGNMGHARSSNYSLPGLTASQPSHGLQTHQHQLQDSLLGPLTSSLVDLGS
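AlphaScreen with GST-Six1 and His-Eya2 (5X mix: 250 nM and 500 nM), glutathione donor and nickel acceptor beads; buffer 50 mM Tris pH 8.0, 300 mM NaCl, 1 mM TCEP; 1 h at 37 C in the dark.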
D2 agonist: Beta-Arrestin HTS for Positive Allosteric Modulators of the Human D2 Dopamine Receptor: Agonists | DiscoveRx PathHunter D2 beta-arrestin, luminescence, 90 min; 100% = 57 uM dopamine signal | activation, % (concentration not given with the values) | 360,000 compounds, 0.084% hits; in the data active = activation above about 40%; inconclusive = about 15% to 40%; inactive = below about 15%; further: the text of the record calls up to 30% inactive
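DiscoveRx PathHunter D2 beta-arrestin cells (2,100/well) attached overnight, then compound-stimulated 90 min at 37 C in HBSS/10 mM HEPES/0.1% Tween-20 buffer; beta-galactosidase complementation read by luminescence after 1 h at ambient temperature. Dopamine 57 uM final (EC100) as control.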
Active calls of the source: *; . = not tested or not shown; [ ] = remark or other dose.

SMILES	D2 PAM	Sfp inh	TRPV1 PAM	PINK1 modulator	CtBP-E1A inh	Six1-Eya2 blk	D2 agonist
O=C(CSc1ccc(Br)cc1)Nc1cccc(S(=O)(=O)N2CCOCC2)c1	5	.	-7	5.1%	-18	-3	0.6
Cc1ccc(CSCC(=O)N(C)CC(=O)Nc2ccc(Br)cc2C)cc1	-10	.	3	5.1%	9	3	-3.3
CC(C)=CCN1CCN(Cc2cc(C(C)C)n[nH]2)CC1CCO (stereo not given)	-25	18%	-3	-1.2%	6	7	-1.6
COCCNc1nc(Oc2ccc(NC(C)=O)cc2)c2sc(-c3ccccc3)cc2n1	-19	.	.	2.5%	6	5	-4.0
C[C@@H]1CCCCO[C@@H](CN(C)S(=O)(=O)c2ccc(Cl)cc2)[C@@H](C)CN([C@H](C)CO)C(=O)c2cc(N(C)C)ccc2O1	.	.	.	0.0%	2	0	-1.1
CC1(C)CC(N2CCOCC2)=CC(=[N+]2CCOCC2)C1	-23	-10%	17	-0.9%	1	0	-1.6
COc1ccc(C(C)=O)c(OCC(=O)NCCC2=CCCCC2)c1	-10	.	.	0.0%	-16	3	0.3
N#Cc1c(-c2ccccc2)nc(-c2ccccc2)[nH]c1=O	-9	20%	12	0.8%	1	7	-1.5
COc1cc(OC)c(C(=O)O/N=C(\N)c2ccc(C)cc2)cc1OC	18	6%	7	0.2%	-23	-27	15
COc1ccc2oc(=O)c(C(=O)NCc3ccco3)cc2c1	-6	-1%	2	1.6%	2	2	-2.8
COc1ccccc1NC(=O)Nc1nc(C(C)(C)C)cs1	-26	12%	-12	3.9%	1	-9	-2.6
CCC(=O)N(Cc1cc2cc(C)c(C)cc2[nH]c1=O)C1CCCCC1	-9	-7%	-12	5.8%	-7	-9	-3.0
NCCc1nnc(SCc2ccccc2Cl)o1	-1	4%	0	-0.4%	-3	9	0.3
CCOc1ccccc1-n1nnnc1SCC(=O)NC(=O)NCc1ccco1	-12	-17%	3	-6.2%	3	-12	-2.6
CCN1CCN(c2nc3c(c(=O)n(C)c(=O)n3C)n2Cc2cccc3ccccc23)CC1	-21	15%	-5	-5.5%[38.3 µM]	19	-3	1.5
CCN1C(=O)c2cccc3c(S(=O)(=O)NCCCN4CCOCC4)ccc1c23	-30	5%	7	2.3%	-8	-6	-0.7
COCCN(C(=O)COC(=O)CCC(=O)c1cccs1)c1c(N)n(Cc2ccccc2)c(=O)[nH]c1=O	-19	.	-5	2.8%	0	-2	-6.2
N#Cc1ccc(C2=CC(=O)C[C@H](c3ccc(Cl)cc3)C2)cc1	-29	.	-15	-0.7%	-4	-8	-0.1
O=C(c1ccc(S(=O)(=O)Nc2ccccc2F)cc1)N1CCC1	-6	.	5	-2.0%	0	1	-3.3
COCCNS(=O)(=O)c1ccc(OCC(=O)N2CCc3ccccc3C2)c(Cl)c1	-2	0%	24	1.3%	7	2	-0.6
O=C(CCS(=O)(=O)c1ccccc1Cl)Nc1ccc(S(=O)(=O)Nc2ncccn2)cc1	-7	-4%	.	0.7%	-4	-3	-1.8
CCCc1c(-c2ccc(Cl)cc2)ncn1CCc1ccccc1OC	.	.	.	-1.3%	-2	-12	.
O=C(CN1C(=O)NC2(CCCCCC2)C1=O)Nc1cccc(F)c1	2	.	-14	0.0%	4	3	0.0
CCOC(=O)C1=C(C)NC(=S)NC1c1ccc(C)s1 (stereo not given)	-3	14%	29	3.8%	-1	3	1.3
NC(=O)C1CCN(C(=O)/C=C/c2ccccc2[N+](=O)[O-])CC1	-4	0%	7	-0.7%	1	0	-2.8
CCCS(=O)(=O)N1CCC(C(=O)NCCCOC)CC1	-13	0%	-6	0.4%	3	-4	-1.6
O=C(CN1C(=O)NC2(CCCCCCC2)C1=O)N1CCN(C(=O)c2ccco2)CC1	-15	-2%	6	-0.3%	-1	5	0.8
O=S(=O)(c1ccc(F)cc1)N1CC2CCCN2c2ccc(C(F)(F)F)cc21 (stereo not given)	-10	14%	-4	4.1%	9	1	-4.7
Cc1ccc(C(=O)NNC(=O)Cn2nnc3ccccc32)cc1	-4	14%	3	-1.0%	11	2	-0.5
C=CCn1c(SC)nc2sc3c(c2c1=O)CCc1ccccc1-3	-2	-23%	12	5.3%	2	16	-3.0
O=C(CSCc1ccccc1)N1CCN(c2ccccc2)CC1	-9	-1%	-15	1.3%	5	-2	1.1
Cc1cc(C)n(C(=O)C2CCCN2S(=O)(=O)c2ccc(Cl)cc2)n1 (stereo not given)	12	7%	5	-0.3%	-6	7	-1.2
COc1ccc(NC(=O)C(OC(=O)c2cnccn2)c2ccccc2)cc1Cl (stereo not given)	0	1%	-19	2.7%	-11	-2	-4.6
O=c1[nH]c2cc(Cl)ccc2n(CCNc2ncc(C(F)(F)F)cc2Cl)c1=O	-14	4%	-3	2.9%	-1	3	-3.6
O=C1COc2ccc(C(=O)COC(=O)c3ccc(F)cc3Cl)cc2N1	-6	.	.	3.8%	4	2	-1.6
Cc1cc(C)n(-c2ccc(C(=O)N3CCN(S(=O)(=O)c4ccc(Br)cc4Cl)CC3)cc2)n1	-29	.	.	-0.2%	-4	-7	-1.8
O=c1c([N+](=O)[O-])cn(Cc2ccccc2)c(=O)n1Cc1ccccc1	-1	.	.	-1.2%	-2	-8	0.3
Cc1nnc(SCC2=C(C(=O)O)N3C(=O)C(NC(=O)Cn4nc(C(F)F)c(Cl)c4C)C3SC2)s1 (stereo not given)	-16	-12%	7	-0.6%	1	8	-5.0
Cc1cc2nc(CCN(Cc3cccnc3)C(=S)Nc3ccc(F)cc3)[nH]c2cc1C	-14	8%	19	-0.8%[38.3 µM]	3	-1	-1.2
CCOC(=O)c1sc(C)nc1C1CCN(C(=O)OCC)CC1	4	-14%	-8	-1.2%	1	7	-2.5
O=C(OCc1nnc(-c2ccccc2)o1)c1ccc2c(c1)C(=O)N(CCc1ccccc1)C2=O	-4	19%	-1	-0.2%	-3	-2	-4.1
CC(C)(C)OC(=O)N1CCC[C@H]1c1nnc(SCC(=O)Nc2cccc(Cl)c2)o1	-11	17%	-3	2.5%	13	0	-4.9
Cc1csc(SCC(=O)Nc2nccs2)n1	7	.	14	-0.4%	-2	-6	0.4
CC(NC(=O)c1ccccc1Br)c1nnc(SCC(=O)NC2=NCCS2)n1C (stereo not given)	-4	11%	-7	3.1%	-16	4	-0.9
CC[n+]1c(C=C2C=C(C)OC(C)=C2)sc2ccccc21	-9	1%	6	22µM*	-27	-8	5.3
Cc1ccc(S(=O)(=O)Nc2ccc(S(=O)(=O)N3CCOCC3)cc2)cc1[N+](=O)[O-]	-5	19%	7	1.1%	7	3	-1.1
COc1ccc(CNC(=O)C2Cc3c(-c4ccccc4Oc4ccccc4)ccnc3O2)cc1OC (stereo not given)	3	.	.	2.4%	-8	-14	5.3
CCc1[nH]nc2c1C(Cc1ccccc1)C(C#N)=C(N)O2 (stereo not given)	-13	8%	4	1.3%	-1	7	-4.9
Cc1ccc([C@H]2C[C@@H](O)[C@H](n3cc(-c4ccc(F)cc4)nn3)CN2C(=O)C2CCCCC2)cc1	-1	.	.	14%	1	-6	-8.2
Cc1cc(OCC(=O)OCC(=O)NCCN2C(=O)CSC2=O)ccc1Cl	-1	.	3	0.5%	1	-1	-3.1
O=c1c2sccc2nc(SCc2cc(=O)n3cc(Cl)ccc3n2)n1Cc1ccccn1	3	-6%	8	3.1%	0	-11	-7.3
Cc1cccc(NC(=O)c2nc[nH]c2C(=O)N2CCN(C(=O)OC(C)(C)C)CC2)c1	-9	.	2	4.3%	2	1	-0.5

Entries from the list above that have an aryl thioether with sulfur outside any ring, in the order listed:
SMILES	D2 PAM	Sfp inh	TRPV1 PAM	PINK1 modulator	CtBP-E1A inh	Six1-Eya2 blk	D2 agonist
O=C(CSc1ccc(Br)cc1)Nc1cccc(S(=O)(=O)N2CCOCC2)c1	5	.	-7	5.1%	-18	-3	0.6
NCCc1nnc(SCc2ccccc2Cl)o1	-1	4%	0	-0.4%	-3	9	0.3
CCOc1ccccc1-n1nnnc1SCC(=O)NC(=O)NCc1ccco1	-12	-17%	3	-6.2%	3	-12	-2.6
C=CCn1c(SC)nc2sc3c(c2c1=O)CCc1ccccc1-3	-2	-23%	12	5.3%	2	16	-3.0
Cc1nnc(SCC2=C(C(=O)O)N3C(=O)C(NC(=O)Cn4nc(C(F)F)c(Cl)c4C)C3SC2)s1 (stereo not given)	-16	-12%	7	-0.6%	1	8	-5.0
CC(C)(C)OC(=O)N1CCC[C@H]1c1nnc(SCC(=O)Nc2cccc(Cl)c2)o1	-11	17%	-3	2.5%	13	0	-4.9
Cc1csc(SCC(=O)Nc2nccs2)n1	7	.	14	-0.4%	-2	-6	0.4
CC(NC(=O)c1ccccc1Br)c1nnc(SCC(=O)NC2=NCCS2)n1C (stereo not given)	-4	11%	-7	3.1%	-16	4	-0.9
O=c1c2sccc2nc(SCc2cc(=O)n3cc(Cl)ccc3n2)n1Cc1ccccn1	3	-6%	8	3.1%	0	-11	-7.3

Source: PubChem
